Screens from PubChem.
MARV entry inh – inhibitors of Marburg virus binding or cell entry; Marburg virus pseudotyped entry inhibition, cell reporter; control for the full effect not named in the record; about a third of the inactives were read at about 46 µM; Potency, µM (top dose mostly 37.8 µM), without a hit: top-dose activity change, negative = inhibition, actives largely listed as inhibitors; 300,000 compounds, 1.8% hits; AID 540276; active = well fitted inhibition curve with a large enough effect; inconclusive = small, poorly fitted or top-dose-only effect, or effect the other way; inactive = flat fitted curve, though single readings scatter; tested in HEK293 cells; about a fifth of its hits are not listed in these tables; further: on the % scale 0 is the no-effect control and ±100 the full control effect; luciferase read-out
Cruzain Triton – cruzain (T. cruzi) inhibition with detergent | Potency, µM, inactives show max response, negative = inhibition, usual class: inhibitors | purified cruzain, Z-FR-AMC fluorescence, 0.01% Triton | P25779 | 200,000 compounds, 0.43% hits | AID 1478;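 further: plate controls were neutral wells for no effect and buffer without enzyme for full effect; nearly all actives have a fitted effect of over 40% in size; top concentration of the series not given in the record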
Target sequence (P25779 123-467 limits assumed): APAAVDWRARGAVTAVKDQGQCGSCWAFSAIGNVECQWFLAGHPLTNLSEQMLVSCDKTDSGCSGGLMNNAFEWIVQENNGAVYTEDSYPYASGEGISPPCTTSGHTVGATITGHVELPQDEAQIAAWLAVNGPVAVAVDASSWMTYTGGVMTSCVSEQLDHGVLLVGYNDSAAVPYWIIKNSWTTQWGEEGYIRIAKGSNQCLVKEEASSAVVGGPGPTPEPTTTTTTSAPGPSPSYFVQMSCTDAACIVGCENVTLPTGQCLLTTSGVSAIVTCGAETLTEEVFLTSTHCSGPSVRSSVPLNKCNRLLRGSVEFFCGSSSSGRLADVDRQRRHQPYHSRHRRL
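In this qHTS format, compounds are incubated with 1.5 nM cruzain for 15 min at room temperature before 2 uM Z-FR-AMC is added. Release of AMC is followed at 360/450 nm, and progress is taken as the 60 s fluorescence difference.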
StopGo reporter – FMDV 2A StopGo reporter, luciferase signal. human cells with a luciferase reporter of 2A StopGo recoding; control for the full effect not named in the record. Potency, µM (highest dose often 57.9 µM), for inactives: at the top dose signal change, negative = less light. 410,000 compounds, 1.2% hits. AID 1159524; active = well fitted falling curve with a large enough effect; inconclusive = small, poorly fitted or top-dose-only effect; inactive = no such curve, though single readings can be large or run the other way; tested in HEK293T cells; further: on the % scale 0 is the no-effect control and ±100 the full control effect; nearly all actives have a fitted effect of over 45% in size; luciferase light after 4 h
NS1 function inh – influenza NS1 inhibition; Potency, µM (top dose mostly 46.1 µM), for the others: at the top dose activity, positive = more growth; 270,000 compounds, 0.4% hits; S. cerevisiae slowed by influenza A NS1, growth recovery by OD600; AID 2326; active means well fitted rising curve with a large enough effect; inconclusive means small, poorly fitted or top-dose-only effect; inactive means no such curve, though single readings can be large or run the other way; further: nearly all actives have a fitted effect of over 50% in size
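Growth recovery, yeast-based: influenza A NS1 expressed in S. cerevisiae causes slow growth, and suppressors are detected by OD600. The parent strain without NS1 is used as positive control.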
Lassa entry inh – blocks Lassa virus binding to or entry into cells | Potency, µM (doses to about 37.9 µM), for inactives: top-dose activity change, negative = inhibition, hits mostly inhibitors | Lassa virus pseudotype entry inhibition, cell reporter; control for the full effect not named in the record | 300,000 compounds, 1.2% hits | AID 540256; active means well fitted inhibition curve with a large enough effect; inconclusive means small, poorly fitted or top-dose-only effect, or effect the other way; inactive means flat fitted curve, though single readings scatter; tested in HEK293 cells; further: on the % scale 0 is the no-effect control and ±100 the full control effect; nearly all actives have a fitted effect of over 50% in size; luciferase read-out
SARS PLpro yeast – SARS-CoV PLP inhibition in yeast. S. cerevisiae expressing SARS-CoV PLpro, growth rescue; control for the full effect not named in the record. Potency, µM (top dose mostly 32.9 µM), inactives show at the top dose activity, positive = growth rescue. 330,000 compounds, 0.19% hits. AID 485353; active means well fitted rising curve with a large enough effect; inconclusive means small, poorly fitted or top-dose-only effect; inactive means no such curve, though single readings can be large or run the other way; further: 0% is about no effect; nearly all actives have a fitted effect of over 55% in size; growth read by luminescence after 48 h
RE007 growth inh – less growth of the S. pombe RE007 Vpr strain; S. pombe RE007 Vpr strain, BacTiter-Glo ATP luminescence, 24 h; control for the full effect not named in the record; Potency, µM (top dose mostly 92.2 µM), for inactives: at the highest dose activity change, negative = less growth; 360,000 compounds, 0.21% hits; AID 651644; active = well fitted falling curve with a large enough effect; inconclusive = small, poorly fitted or top-dose-only effect; inactive = no such curve, though single readings can be large or run the other way;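 further: on the % scale 0 is the no-effect control and ±100 the full control effect; nearly all actives have a fitted effect of over 50% in size; the assay follows cell death caused by Vpr and the record does not say whether a fall means rescue or toxicity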
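Fission yeast strain RE007, carrying one chromosomally integrated HIV-1 vpr copy, was seeded at OD 0.01 in PMG+AL medium with 23 nL pinned compound. After 24 h at 30 °C and 99% humidity, viability was read by BacTiter-Glo luminescence.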
Cruzain inh noDet – cruzain (T. cruzi) inhibition without detergent; P25779; purified cruzain, Z-FR-AMC fluorescence, no detergent; Potency, µM, for inactives: max response, negative = inhibition, usual class: inhibitors; 200,000 compounds, 2.3% hits;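 further: plate controls were enzyme without inhibitor for no effect and buffer without enzyme for full effect; nearly all actives have a fitted effect of over 40% in size; top concentration of the series not given in the record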
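Purified cruzain at 1.5 nM, pre-incubated 15 min with compound at room temperature in 100 mM sodium acetate pH 5.5, 5 mM DTT, 0.00005% Triton X-100. Reaction started with 2 uM Z-FR-AMC; AMC fluorescence increase over 60 s gives rate.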
An asterisk follows results filed as active; ? = inconclusive; nt = not tested or not shown; & = joins results of further samples; [ ] = dose if it differs, or a comment. Unless noted, the call rests on the fitted dose curve; in most records, active means well fitted curve in the direction sought with a large enough effect; inconclusive means small, poorly fitted or top-dose-only effect, or another doubt; inactive means no such curve, though single readings can be large; an effect the other way counts as inactive or inconclusive. Potency means the concentration at half of the fitted maximal effect. Hits appear at their usual frequency (roughly 4.7% active in at least one column).

SMILES | MARV entry inh | Cruzain Triton | StopGo reporter | NS1 function inh | Lassa entry inh | SARS PLpro yeast | RE007 growth inh | Cruzain inh noDet
COC(=O)CCN(C(=O)C12CC3CC(CC(C3)C1)C2)c1ccccn1 | 3% | 2.6% | 0% | -7% | 8% | -13% | -1% | 8%
CC(C)(C)OC(=O)N1CCC(c2c(C(=O)Nc3ccc4c(c3)OCCO4)cnn2-c2ccc(F)cc2)CC1 | nt | -9.6% | -4% | nt | ? | nt | nt | -2%
Fc1ccc(CNC2CN3CCC2CC3)cc1 (stereo unspecified) | nt | nt | 1% | ? | nt | 1% | 2% | nt
CN(C)/C=C(/C(=O)c1ccc(Cl)c(Cl)c1)S(C)(=O)=O | -5%[46.1 µM] | nt | -13% | 5% | 20%[46.1 µM] | 1% | -5% | nt
COc1ccc(OC)c(N(CC(=O)NC2CC2)S(=O)(=O)c2ccc(C)cc2)c1 | -6% | 6.5% | 6% | -47% | 4% | 10% | 14% | 5%
COCCNC(=O)c1ccc2c(c1)N(Cc1cc(C)ccc1C)C(=O)c1ccccc1S2(=O)=O | -23%[46.1 µM] | -2.8% | 4% | nt | -15%[46.1 µM] | nt | nt | ?
O=C(CCC1CCCN(C(=O)c2cccs2)C1)N1CCN(c2ccccn2)CC1 (stereo unspecified) | ? | nt | -18% | 0% | ? | -1% | -17% | nt
C=CCN1C(=O)c2ccc(C(=O)N(C)Cc3ccc(C)o3)cc2C1=O | ? | nt | 12% | nt | 30% | 4% | -12% | nt
CN(C)S(=O)(=O)c1cccc(NC(=S)N/N=C/c2ccc(O)c(O)c2O)c1 | -27%[46.1 µM] | nt | 0% | 18% | -16% | 11% | -12% | nt
CC(C)CC(C(=O)Nc1ccccc1)N1C(=O)C2C3C=CC(C3)C2C1=O (stereo unspecified) | -9%[46.1 µM] | nt | -31% | 0% | 19%[46.1 µM] | -1% | 14% | nt
COc1ccc(CN2C(=O)NC(=O)/C(=C\c3cccc(OC)c3OC)C2=O)cc1 | ? | nt | ? | nt | 25% | -2% | 17% | nt
Cc1ccc(C(=O)OCC(=O)Nc2c(Cl)cc(S(N)(=O)=O)cc2Cl)o1 | nt | nt | -19% | 5% | nt | 0% | 2% | nt
COc1cccc(NC(=O)/C(C#N)=C\c2cn(Cc3ccc(Cl)cc3)c3ccccc23)c1 | nt | -2.7% | -36% | nt | -30%[46.1 µM] | nt | nt | 10µM*
CNC(=O)c1ccc(N(Cc2ccccc2)S(C)(=O)=O)cc1 | -8% | 8.7% | -1% | 5% | -2% | 1% | -9% | 4%
CC(C)N(Cc1nnc(-c2ccccc2Cl)o1)C(=O)c1cccc(C#N)c1 | 1% | 3.5% | nt | -13% | nt | -1% | nt | 3%
CC1=C(C(N)=O)C(c2cccc(Br)c2)n2nc(SCc3ccccc3Cl)nc2N1 (stereo unspecified) | nt | 0.3% | -9% | nt | -7%[46.1 µM] | nt | nt | -29%
O=C(NC(Cc1ccccc1)C(=O)O)/C(=C/c1ccccc1)NC(=O)c1ccco1 (stereo unspecified) | 17%[46.1 µM] | nt | 11% | ? | 11% | 0% | -5% | nt
CCOC(=O)C1CCCN(C(=O)c2ccc3c(c2)OCCO3)C1 (stereo unspecified) | -16% | nt | -2% | nt | -7% | -5% | 7% | nt
O=C(c1ccc2c(=O)n(Cc3ccccc3)c(=S)[nH]c2c1)N1CCOCC1 | ? | nt | 7% | -2% | -5%[46.1 µM] | 3% | 1% | nt
CCOc1ccc2nc(SCC(=O)NNC(=O)c3ccco3)c(C)cc2c1 | ? | nt | 4% | 6% | ? | -3% | -13% | nt
O=C(OC(C(=O)NCC1CCCO1)c1ccc(F)cc1)c1ccco1 (stereo unspecified) | 18% | -6.2% | 11% | -5% | 3% | 2% | -4% | 0%
Cc1ccc2c(c1)c1c(c(=O)n(Cc3ccccc3)c(=O)n1CC(=O)Nc1ccccc1C)n2C | nt | 2.7% | 10% | nt | 2%[46.1 µM] | nt | nt | -5%
CN(C(=O)c1cc2n(n1)C(C(F)(F)F)CC(c1ccco1)N2)c1ccc(OC(F)(F)F)cc1 (stereo unspecified) | -1%&-5% | -0.1% | -14% | 12% | -6% | 1% | -6% | 18%
CC1CCN(C(=O)COC(=O)c2ccc(Br)o2)CC1 | 10% | 4.7% | 67%[activator] | -6% | ? | 3% | -10% | -2%
Cc1ccc(NC(=O)C(=O)NCC(c2cccnc2)N2CCN(Cc3ccccc3)CC2)cc1F (stereo unspecified) | nt | -1.6% | ? | nt | 7%[46.1 µM] | nt | nt | -15%
COc1cc(OC)c(OC)cc1CN1CCc2nc(N3CCN(c4ncccn4)CC3)ncc2C1 | nt | -1.0% | ? | nt | -8%[46.1 µM] | nt | nt | 8%
CC(C)(C)NC(=O)NC(=O)COC(=O)c1ccc(OC(F)F)cc1 | 23% | -6.1% | -14% | -5% | -10% | -7% | -17% | -12%
COc1ccc(-n2nc(C(=O)NCC(=O)N3CCN(c4cccc(Cl)c4)CC3)c3ccccc3c2=O)c(OC)c1 | ? | nt | -5% | 27% | 6%[46.1 µM] | 1% | 8% | nt
Oc1ccc(Br)cc1/C=N/N1CCCCC1 | 26% | -0.5% | 13% | 1% | 11% | 0% | -20% | -11%
CCNC(=S)N/N=C/c1ccc(OCC(=O)Nc2ccc(C)cc2)cc1 | ? | -6.5% | 0% | 10% | -3% | 5% | -8% | -21%
Cc1nn(CCCC(=O)Nc2cccnc2Cl)c(C)c1[N+](=O)[O-] | 14%[46.1 µM] | nt | 0% | nt | 25%[46.1 µM] | 3% | 20% | nt
Cc1ccc(NC(=O)CSCC(=O)Nc2ccccc2N2CCCCC2)cc1 | ? | nt | -18% | nt | 7% | -7% | 6% | nt
O=C(CNS(=O)(=O)c1ccc(C(=O)N2CCOCC2)cc1)N1CCOCC1 | -1% | 3.2% | -25% | -8% | 8% | 3% | -21% | -4%
COc1ccccc1CN1C(=O)c2cccc3cccc(c23)C1=O | 6% | -0.2% | ? | -5% | -7% | -24% | 2% | 11%
C=CCOC(=O)C1=C(C)OC(N)=C(C#N)C1c1ccc(F)cc1 (stereo unspecified) | -1% | -5.4% | -17% | -7% | 1% | 1% | -6% | -6%
Cc1ccc(S(=O)(=O)N(CC(=O)N=Nc2c(O)[nH]c3ccccc23)c2cccc(C)c2)cc1 | ? | -0.7% | ? | ? | ? | 11% | 0% | -22%
Cc1cccc(-n2ncc3c2CCCC3NC(=O)CN2CCCC2=O)c1C (stereo unspecified) | ? | nt | -10% | 9% | ? | 12% | 28% | nt
CC(C)(C)c1ccc(/C=N/N2CCN(c3ccccn3)CC2)cc1 | -19%[14.2 µM] | nt | -27% | -5% | ? | 0% | -10% | nt
O=C(CCc1nc(-c2ccccc2)c(-c2ccccc2)o1)OCc1ccc(Cl)cc1 | ? | -27% | 3% | 15% | 2% | 1% | -4% | ?
C/C(CC(=O)Nc1cccc(C(F)(F)F)c1)=N/NC(=O)C(=O)NCCO | -7% | nt | -8% | 0% | -10% | -1% | -10% | nt
CC(C)Sc1nc(N2CCOCC2)c2c(c1C#N)CC(C)(C)N(C)C2 | ? | -0.6% | -29% | 3% | -6% | -5% | ? | -1%
COc1ccc(Nc2nc3ccccc3nc2NS(=O)(=O)c2cccs2)c(OC)c1 | nt | nt | -23% | 3% | nt | 1% | 4% | nt
CCn1c(SCC(=O)Nc2ccc(C)cc2)nc(O)cc1=O | -8%[46.1 µM] | nt | 7% | ? | -8% | 3% | 2% | nt
O=C(CNC(=O)c1ccc(Cl)cc1Cl)OCCCn1c(=O)[nH]c2ccccc21 | 3% | nt | 15% | nt | -3%[46.1 µM] | 5% | 0% | nt
O=C1CCCN1CCCNC(=S)Nc1ccc(Nc2ccccc2)cc1 | ? | nt | ? | 4% | ? | 1% | -27% | nt
CCCN1C2CCCC1CC(NC(=S)Nc1cccc(C)c1)C2 (stereo unspecified) | nt | nt | -10% | 4% | nt | 0% | 5% | nt
COc1ccc(CNS(=O)(=O)c2cc(OCC(N)=O)c(C)cc2Cl)cc1 | -18% | 2.3% | -17% | -7% | -2% | 3% | -9% | 10%
COc1ccc(CC(=O)c2c(O)cc(O)cc2O)cc1OC | 13% | -9.3% | 11% | 24% | 0% | 3% | 1% | 1%
CS(=O)(=O)c1ccccc1C(=O)Nc1ccc2sccc2c1 | nt | nt | 16% | 6% | nt | 5% | 13% | nt
Cc1ccc(N2C(=O)CC(=O)NC2=O)c(C)c1 | nt | nt | -15% | 4% | nt | 12% | -1% | nt
CCOc1ccc(NC(=O)c2sc3nc4c(c(-c5ccccc5)c3c2N)C(=O)CC(C)(C)C4)cc1 | 14%[46.1 µM] | -2.7% | -7% | nt | ? | nt | nt | 0%
CCC(C)NC(=O)Cc1cn(C)c2ccccc12 (stereo unspecified) | 1% | 3.4% | -2% | 5% | 5% | 13% | -1% | 10%
Cc1oc(-c2ccc(Cl)cc2)nc1CS(=O)CC(=O)NCCN1CCCC1 (stereo unspecified) | nt | -4.0% | -8% | 6% | nt | 9% | 7% | -1%
COc1ccc(Oc2nc(C)cc(C)c2C#N)cc1 | 10% | 0.1% | nt | ? | -16% | 2% | -4% | -2%
O=C(O)c1ccc(NC(=S)NC2CCCCC2)cc1 | ? | -0.9% | 8% | 19% | 7% | 5% | 6% | 3%
O=C1OC(c2ccccc2)/C(=C(/O)c2ccc(Cl)cc2)C1=O (stereo unspecified) | 0% | 1.1% | 12% | -2% | 11% | 16% | 27% | 7%
Cc1nn(CC(=O)N2CCN(c3ccccn3)CC2)c(=O)c2cc3sccc3n12 | nt | nt | -13% | -3% | nt | 19% | -8% | nt
